HPGD block: qHTS Assay for Inhibitors of HPGD (15-Hydroxyprostaglandin Dehydrogenase). 15-hydroxyprostaglandin dehydrogenase [NAD(+)] (Homo sapiens), P15428. purified HPGD, NADH fluorescence kinetic, PGE2 substrate. Potency, µM, without a hit: at the top dose activity change, negative = inhibition, usual class: inhibitors. 150,000 compounds, 4.3% hits; active = well fitted inhibition curve with a large enough effect (not every such curve was filed as active); inconclusive = small, poorly fitted or top-dose-only effect, or another doubt; inactive = no such curve, though single readings can be large or run the other way;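 also: top concentration of the series not given in the record; plate controls included wells without enzyme; inactives centre near -10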
Target sequence (P15428 whole entry, looked up): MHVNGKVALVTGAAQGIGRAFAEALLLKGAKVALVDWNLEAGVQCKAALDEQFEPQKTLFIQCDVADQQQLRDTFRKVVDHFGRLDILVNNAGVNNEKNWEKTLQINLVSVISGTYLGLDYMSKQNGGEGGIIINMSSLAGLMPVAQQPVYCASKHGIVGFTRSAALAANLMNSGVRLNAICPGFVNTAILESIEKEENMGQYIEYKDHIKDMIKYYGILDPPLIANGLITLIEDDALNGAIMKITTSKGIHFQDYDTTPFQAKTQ
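NADH formation kinetics: reaction with 30 uM PGE2 and 1 mM NAD+ (final), 20 nM enzyme, Tris-HCl pH 8 with Tween 20, after 15 min compound preincubation at room temperature. Fluorescence change, last versus first of five reads.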
An asterisk follows results filed as active; ? = inconclusive; & = joins results of further samples. % is scaled to controls: 0 for no effect and ±100 for the full control effect; potency is read from the fitted curve at half-maximal effect.

| HPGD block | Structure |
| --- | --- |
| -7% | CO/N=C(\C(=O)N[C@@H]1C(=O)N2C(C(=O)O)=C(COC(N)=O)CS[C@@H]12)c1ccco1 |
| -8% | Cn1c(=O)[nH]c(=O)c2c1nc(OC(=O)c1ccccc1)n2CC(O)COc1ccc(F)cc1 (configuration not stated) |
| 1.6µM* | COc1cc(/C=C2/C(=O)ON=C2C)ccc1OCc1ccccc1F |
| -1% | COCc1cc(Sc2c(Cl)cccc2Cl)nc(-c2ccccc2)n1 |
| -20% | COc1ccc2[nH]cc(CCCN3C(=O)c4ccccc4C3=O)c2c1 |
| -5% | Cc1cccc(C)c1NC1=NC(=S)N(c2ccccc2)C12CCOC(C)(C)C2 (configuration not stated) |
| -27% | CC(C)C[C@H]1C(=O)N2CCCC2[C@]2(O)O[C@](NC(=O)[C@@H]3C=C4c5cccc6[nH]c(Br)c(c56)C[C@H]4N(C)C3)(C(C)C)C(=O)N12 (some centres not stated) |
| -18% | C=CCn1c(CNC(=O)c2cccs2)n[nH]c1=S |
| 8.9µM* | Cc1cccc2c1N(CCCOc1ccc(C(C)(C)C)cc1)C(=O)C2=O |
| ? | COC(=O)c1ccc(NC(=O)N2CCC(O)(c3cccnc3)CC2)cc1 |
| -21% | Cc1ccc(NCc2nnc(SCC(=O)c3ccccc3)n2Cc2ccco2)c(C)c1 |
| 14µM* | CN(Cc1ccco1)S(=O)(=O)c1ccc2c(c1)CCN2C(=O)CCC(=O)O |
| 2% | CCOC(=O)CN1CC23C=CC(O2)C(C(=O)N2CCN(c4ccc(F)cc4)CC2)C3C1=O (configuration not stated) |
| -10% | O=C(Cn1cc2c(n1)CCCCC2)N1CCc2ccccc2C1 |
| -4% | Cc1cc(C)c(NC(=O)C2CCCN2C(=O)NC2CCCCC2)c(C)c1 (configuration not stated) |
| ? | CCOc1c2ccc(C(=O)NC3CCCc4ccccc43)cc2nn1C (configuration not stated) |
| -11% | Cc1nc2ccc(NS(=O)(=O)c3c(C)c(C)cc(C)c3C)cc2s1 |
| -12% | Cc1cccc(NC(=O)C2(c3ccc([N+](=O)[O-])cc3)CCCC2)c1 |
| ? | COc1cccc(OC)c1C(=O)N1CCN(c2ccccn2)CC1 |
| -1% | COc1ccccc1NC(=O)CSc1nc(O)c(Cc2ccccc2)c(=O)[nH]1 |
| ? | N#CC1(C#N)COC23CCCCC2C1(C#N)C(=N)O3 (configuration not stated) |
| -8% | CC1CCCCN1C(=O)Cn1c(=O)n(CCC(=O)NCc2ccco2)c(=O)c2sccc21 (configuration not stated) |
| ? | CCOC(=O)c1c(C)oc2ccc(NS(=O)(=O)c3ccc4c5c(cccc35)C(=O)N4)cc12 |
| -12% | CS(=O)(=O)Nc1ccc(C2=NN(C(=O)c3ccco3)C(c3ccccc3)C2)cc1 (configuration not stated) |
| -2% | CCCOC(=O)NC(CC)COC(=O)Nc1cc(C)ccc1C (configuration not stated) |
| -14% | Cc1cc(OCCOc2cccc3cccnc23)c(C)cc1Cl |
| -6% | O=C(C1CCN(S(=O)(=O)c2cccnc2)CC1)N1CCN(c2cccc(Cl)c2)CC1 |
| -22% | COc1ccc(-c2noc(CCC(=O)O)n2)cc1 |
| 0% | O=C(CN(C1CC1)S(=O)(=O)c1ccc(S(=O)(=O)N2CCCCCC2)cc1)Nc1ccccc1 |
| -1% | CCOC(=O)c1nc2ccccc2nc1C |
| -13% | CC(C)CCn1c(SCC#N)nc2c(sc3ccccc32)c1=O |
| -13% | CCn1c(SCC(=O)c2ccc(O)c(O)c2)nnc1-c1ccccc1OC |
| -5% | CCS(=O)(=O)N1CCC(C(=O)N2CCN(c3ccccc3)CC2)CC1 |
| -1% | Cc1nccc2[nH]c(=O)c(C(=O)NCCCN(C)C3CCCCC3)cc12 |
| -5% | Cc1ccc(C(CCN)c2ccco2)cc1 (configuration not stated) |
| -19% | O=C(Nc1nccs1)C1CCCN1S(=O)(=O)c1ccc(Cl)cc1 (configuration not stated) |
| -29% | Cc1ccsc1/C=N/n1cnc2sc(C)c(C)c2c1=O |
| -19% | COc1ccc(/C=C/C(=O)NCCn2c(C)cc3ccccc32)cc1OC |
| -1% | CN1CCN(S(=O)(=O)c2cnccc2N2CCN(c3cccc(Cl)c3)CC2)CC1 |
| -9% | Cc1ccc2nc(NC(=O)COC(=O)c3ccco3)sc2c1 |
| ? | CCC(=O)c1cc2c(cc1NC(=O)c1ccccc1)OCCO2 |
| -12% | COc1ccc(C(=O)Nc2nc3nccc(-c4ccccc4)n3n2)cc1 |
| -9% | CCOC(=O)N1CCC(=C(C#N)C(=O)Nc2cc(OC)ccc2OC)CC1 |
| ? | CCN(CC)S(=O)(=O)c1ccc(NC(=O)c2ccccn2)cc1 |
| -9% | COc1ccccc1NC(=S)N1CCc2cc(OC)c(OC)cc2C1 |
| -4% | O=C(Nc1ccc2c(c1)nc1n2CCOC1)C1CCCCC1 |
| 1% | CCOc1ccc(N(CC(=O)NC2CCCC2)C(=O)CCCC(=O)Nc2ccccn2)cc1 |
| ? | CC1CN(C(=O)c2cnn3c(C(F)F)cc(-c4ccccc4)nc23)CC(C)O1 (configuration not stated) |
| -11% | CCN(CC)C(=O)COc1ccc(C=O)cc1OC |
| -7% | CC(C)CNc1nc(N)c([N+](=O)[O-])c(NCC2CCCO2)n1 (configuration not stated) |

Next structures follow.
| HPGD block | Structure |
| --- | --- |
| -4% | CC1(NC(=O)COc2ccccc2-c2ccccc2)CCS(=O)(=O)C1 (configuration not stated) |
| -16% | CC(=O)N(C)C1=C(O)c2ccccc2C(=O)C1=O |
| -15% | CC(C)c1ccc(NC(=S)NCCc2c[nH]c3ccccc23)cc1 |
| -15% | O=C1Nc2ccccc2N(O)N1c1cc(-c2ccccc2Cl)no1 |
| -20% | O=C(Nc1cccc2nsnc12)c1cccnc1 |
| -17% | CCn1cc(/C=N\NC(=O)c2ccc3c(c2)c(C)c(C)n3Cc2ccccc2)c(C)n1 |
| -13% | Cc1ccc(NC2c3ncccc3C(=O)N2Cc2ccc(F)cc2)cc1 (configuration not stated) |
| -15% | O=c1c2oc3ccccc3c2[nH]c(=S)n1-c1ccccc1 |
| -15% | CCCC(NC(=O)c1ccccc1)c1nc2ccccc2n1Cc1ccc(C(=O)OC)o1 (configuration not stated) |
| 10µM* | Cc1cccc(OCc2n[nH]c(=S)n2C2CCCCC2)c1 |
| -10% | O=c1[nH]c(=O)n([C@H]2C[C@H](O)[C@@H](CO)O2)cc1C(F)(F)F |
| -2% | CN(CC(=O)Nn1cnnc1)S(=O)(=O)c1cc(Cl)ccc1Cl |
| -10% | CCCCCCN(C(=O)CCCCCN1C(=O)NC(c2ccc(-c3ccccc3)cc2)C(C(=O)OCc2ccccc2)=C1C)C(C(=O)NCCCC)c1ccccn1 (configuration not stated) |
| 2% | O=C(NC1CCCCC1)C1CCN(S(=O)(=O)c2cccc3cccnc23)CC1 |
| -8% | O=C(Nc1ccc(Cl)cc1)Nc1nnc(CSCc2ccccc2Cl)s1 |
| -11% | O=c1c2ccccc2nc2n1CC/C2=C\c1ccccc1[N+](=O)[O-] |
| -5% | O=C(O)C(Cc1c[nH]c2ccccc12)NS(=O)(=O)c1ccc2ccccc2c1 (configuration not stated) |
| -23% | O=C(O)C(Cc1c[nH]c2ccccc12)NS(=O)(=O)c1cccc2nsnc12 (configuration not stated) |
| -13% | C=CCNC(=O)/C(C#N)=C/c1c(C)nn(-c2ccc(Cl)cc2)c1Cl |
| ? | CCOC(=O)C1C(=O)C=C(c2ccc(NS(C)(=O)=O)cc2)CC1c1ccco1 (configuration not stated) |
| -11% | CCCCn1c(=O)c(-[n+]2ccccc2)c([O-])c2ccccc21 |
| -8% | C=CCNC(=S)/N=c1/scc(C)n1C |
| -12% | COC(=O)C(NNc1ccccc1)(NC(=O)c1cccc(F)c1)C(F)(F)F (configuration not stated) |
| -16% | CC(C)(C)OC(=O)N1CCC(C(=O)O)CC1 |
| 1% | C=CC1=C(C(=O)O)N2C(=O)[C@@H](NC(=O)/C(=N\OCC(=O)O)c3csc(N)n3)[C@@H]2SC1 |

Records listed so far that bear a hit mark in HPGD block.
| HPGD block | Structure |
| --- | --- |
| 1.6µM* | COc1cc(/C=C2/C(=O)ON=C2C)ccc1OCc1ccccc1F |
| 8.9µM* | Cc1cccc2c1N(CCCOc1ccc(C(C)(C)C)cc1)C(=O)C2=O |
| 14µM* | CN(Cc1ccco1)S(=O)(=O)c1ccc2c(c1)CCN2C(=O)CCC(=O)O |
| 10µM* | Cc1cccc(OCc2n[nH]c(=S)n2C2CCCCC2)c1 |

Carrying on.
| HPGD block | Structure |
| --- | --- |
| 0% | CCOc1cc(/C=N\Nc2ccc([N+](=O)[O-])cc2)ccc1OCC(=O)Nc1ccc(C)c(C)c1 |
| -5% | CCOc1ccc(-c2nnc3sc(COc4ccccc4)nn23)cc1 |
| 28µM* | Cc1cc(Cl)ccc1OCC(=O)N1CCCCC1 |
| -17% | COc1ccc(-c2nnc3ccc(SCC(N)=O)nn23)cc1OC |
| -1% | C=CCC(Nc1ccc(OC)cc1)C(=O)OCC (configuration not stated) |
| -23% | O=C(Nc1ccc(Nc2ccccc2)cc1)c1ccco1 |
| -7% | CC(C)CCNC(=O)NC(=O)CSc1nnc(-c2ccccc2Br)o1 |
| -5% | CCOP(=O)(OCC)C(O)c1cc(OC)c(OC)c(OC)c1 (configuration not stated) |
| -12% | C=CCN(CC=C)C(=O)Nc1ccc2nc(C)sc2c1 |
| ? | O=c1oc2ccccc2n1CCn1c2ccccc2c2nc3ccccc3nc21 |
| -13% | S=C(NCCc1ccccn1)Nc1ccc(Cl)cc1 |
| -15% | CCOc1c(C(=O)CC)cc2c(C)cc(=O)oc2c1C |
| -12% | CN(C)c1ccc(N=Nc2ccccc2C(=O)OCC(=O)N(C)C2CCCCC2)cc1 |
| -3% | Cc1nc(SCC(=O)CC(=O)OC(C)C)c(C#N)c(C)c1C |
| -22% | Cc1ccc2[nH]c3c(=O)n(CCCN4CCN(C)CC4)cnc3c2c1 |
| -13% | Cc1nc(NC(=O)c2ccco2)sc1-c1csc(Nc2ccc(Cl)cc2)n1 |
| -9% | Cn1c(CN2CCN(C(=O)c3ccccc3)CC2)nc2cc([N+](=O)[O-])ccc21 |
| 0% | CCn1cc(/C=N/O)c(C)n1 |
| -8% | Cc1cccc(N2CC(C(=O)Nc3nnc(SCC(=O)Nc4nccs4)s3)CC2=O)c1 (configuration not stated) |
| 28µM* | O=S(=O)(Nc1ccc(Cc2ccncc2)cc1)c1cccs1 |
| ? | CCOC(=O)c1sc2nc(CC(=O)OC)nc(NCc3ccc(F)cc3)c2c1C |
| -4% | CC(C)c1nnc(NC(=O)Cc2ccccc2[N+](=O)[O-])s1 |
| -11% | CCn1ncc(/C=N\NC(=O)c2csc3ccccc23)c1C |
| 1% | O=C(c1ccccc1-n1cccc1)N1N=C(C(F)F)CC1(O)C(F)F (configuration not stated) |
| -7% | COC(=O)c1ccc(NC(=O)Nc2ccc(F)cc2)cc1 |
| 0% | Cc1ccc(C2C3=C(CC(C)(C)CC3=O)N=C3c4ccccc4C(=O)C32)cc1 (configuration not stated) |
| -15% | CCOc1ccc(NC(=O)CN2C(=O)C3CCCN3C2=O)cc1 (configuration not stated) |
| -12% | COC(=O)C/C=C/[C@@H](C)[C@@H](/C=N/OC[C@H]1O[C@H](c2ccccc2)C=C[C@@H]1Oc1ccc(OC)cc1)OC |
| -5% | Cc1ccc2c(Cl)cc(Cl)c(OCC(=O)Nc3cccc(S(=O)(=O)N(C)C)c3)c2n1 |
| -16% | CC(=O)Nc1ccc(S(=O)(=O)N(C2=NCC(C)S2)c2ccccc2)cc1 (configuration not stated) |
| -17% | CCCCCn1c(=O)c(F)cn(Cc2ccc(OC)c([N+](=O)[O-])c2)c1=O |
| 6.3µM* | Cc1cc(C(=O)N(C)C)sc1-c1ccccc1 |
| -1%&-4% | c1ccc(CSCCc2ccncc2)cc1 |
| ? | CC(=O)Oc1ccc(C(=O)[C@H]2[C@H]3C(=O)N(c4ccc(C)cc4)C(=O)[C@H]3[C@@H]3C=CC=NN32)cc1 |
| ? | COc1ccccc1CNc1ncnc2ccc(-c3cccnc3)cc12 |
| 1% | COc1cc2c(cc1O)C(SC)=NC(C)(C)C2 |
| ? | Cc1cc2nc(-c3cccc(NC(=O)c4ccc(Br)o4)c3C)oc2cc1C |
| -7% | CN(C)/C=N/c1c(C#N)cnn1-c1ccccc1 |
| -4% | CCC(CC)C1=NN2C(=N)/C(=C\c3cc(C)n(-c4cccc(C)c4)c3C)C(=O)N=C2S1 |
| ? | CCc1c(C)nc2c(C#N)c(C)[nH]n2c1=O |
| -15% | Cc1cc(/C=C2\SC(=S)N(Cc3ccco3)C2=O)c(C)n1-c1cccnc1 |
| -14% | CCOC(=O)N1CCN(C(=O)c2ccc3c(=O)n(Cc4ccccc4)c(=S)[nH]c3c2)CC1 |
| 0% | O=C(c1cc(C(F)(F)F)cc(C(F)(F)F)c1)N1CCC2(CC1)CN(Cc1ccccc1)C2 |
| -1% | O=C1c2ccccc2C(=O)N1CC(O)CN1CCOCC1 (configuration not stated) |
| -15% | CCOc1ccc(NC(=O)CN2CCN(CC(=O)Nc3ccc4c(c3)OCCO4)CC2)cc1 |

Arranged by heavy-atom count (rising): part of the list above
| HPGD block | Structure |
| --- | --- |
| -16% | CC(C)(C)OC(=O)N1CCC(C(=O)O)CC1 |
| 28µM* | O=S(=O)(Nc1ccc(Cc2ccncc2)cc1)c1cccs1 |
| -10% | O=C(Cn1cc2c(n1)CCCCC2)N1CCc2ccccc2C1 |
| -20% | COc1ccc2[nH]cc(CCCN3C(=O)c4ccccc4C3=O)c2c1 |
| -1% | Cc1nccc2[nH]c(=O)c(C(=O)NCCCN(C)C3CCCCC3)cc12 |
| -19% | COc1ccc(/C=C/C(=O)NCCn2c(C)cc3ccccc32)cc1OC |
| ? | O=c1oc2ccccc2n1CCn1c2ccccc2c2nc3ccccc3nc21 |

Bioassay records: PubChem BioAssay, National Center for Advancing Translational Sciences (NCATS)

This is a subset; rates above refer to the full screens.
